Screening data as filed in PubChem BioAssay.
NS1 inh: qHTS Assay for Inhibitors of Influenza NS1 Protein Function | AID 2326, 2010 | S. cerevisiae slowed by influenza A NS1, growth recovery by OD600 | Potency, µM (titrated, usually from 46.1 µM), inactives show at the top dose activity, positive = more growth | 270,000 tested, 0.4% active; also: actives are rising curves; nearly all actives have a fitted effect of over 50% in size
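In this qHTS, NS1 from influenza A is expressed in budding yeast, where it slows growth. Cells are switched from glucose to 2% galactose medium (pH 6.0, -URA), treated with compound, and growth recovery is read at OD600.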
Lassa entry inh: qHTS for Inhibitors of binding or entry into cells for Lassa Virus; Lassa virus pseudotype entry inhibition, cell reporter; control for the full effect not named in the record; Potency, µM (doses to about 37.9 µM), inactives show top-dose activity change, negative = inhibition, usual class: inhibitors; 300,000 tested, 1.2% active; AID 540256, 2011; active means well fitted inhibition curve with a large enough effect; inconclusive means small, poorly fitted or top-dose-only effect, or effect the other way; inactive means flat fitted curve, though single readings scatter; tested in HEK293 cells; also: % is scaled to controls: 0 for no effect and ±100 for the full control effect; nearly all actives have a fitted effect of over 50% in size; luciferase read-out
Cruzain Triton: qHTS Assay for Promiscuous and Specific Inhibitors of Cruzain (with detergent); Potency, µM, for inactives: max response, negative = inhibition, most hits filed as inhibitors; Cruzipain (Trypanosoma cruzi), P25779; purified cruzain, Z-FR-AMC fluorescence, 0.01% Triton; AID 1478, 2009; 200,000 tested, 0.43% active; active = well fitted curve in the direction sought with a large enough effect; inconclusive = small, poorly fitted or top-dose-only effect, or another doubt; inactive = no such curve, though single readings can be large; an effect the other way counts as inactive or inconclusive;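 also: plate controls were neutral wells for no effect and buffer without enzyme for full effect; nearly all actives have a fitted effect of over 40% in size; top concentration of the series not given in the record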
Target sequence (P25779 123-467 limits assumed): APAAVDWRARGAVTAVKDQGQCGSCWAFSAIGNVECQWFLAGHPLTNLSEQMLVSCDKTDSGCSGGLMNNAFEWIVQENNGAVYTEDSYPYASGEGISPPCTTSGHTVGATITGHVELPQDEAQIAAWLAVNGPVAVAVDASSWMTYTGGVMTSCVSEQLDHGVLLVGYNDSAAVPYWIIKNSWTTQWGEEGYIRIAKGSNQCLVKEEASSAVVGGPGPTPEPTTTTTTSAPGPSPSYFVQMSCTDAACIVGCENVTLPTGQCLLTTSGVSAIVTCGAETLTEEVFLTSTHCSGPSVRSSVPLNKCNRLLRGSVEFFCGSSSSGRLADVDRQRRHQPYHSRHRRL
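Detergent-containing run (0.01% Triton X-100) in acetate buffer pH 5.5 with 5 mM DTT: enzyme at 1.5 nM final, 15 min compound preincubation at room temperature, then 2 uM Z-FR-AMC substrate. Activity taken as 60 s fluorescence increase at 360/450 nm.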
MARV entry inh: qHTS for inhibitors of binding or entry into cells for Marburg Virus | 300,000 tested, 1.8% active | Marburg virus pseudotyped entry inhibition, cell reporter; control for the full effect not named in the record; about a third of the inactives were read at about 46 µM | Potency, µM (series often up to 37.8 µM), for the others: top-dose activity change, negative = inhibition, actives largely listed as inhibitors | AID 540276, 2011; active = well fitted inhibition curve with a large enough effect; inconclusive = small, poorly fitted or top-dose-only effect, or effect the other way; inactive = flat fitted curve, though single readings scatter; tested in HEK293 cells; about a fifth of its hits are not listed in these tables; also: % is scaled to controls: 0 for no effect and ±100 for the full control effect; luciferase read-out
Cruzain noTriton: qHTS Assay for Promiscuous and Specific Inhibitors of Cruzain (without detergent) | Cruzipain (Trypanosoma cruzi), P25779 | purified cruzain, Z-FR-AMC fluorescence, no detergent | Potency, µM, inactives show max response, negative = inhibition, usual class: inhibitors | 200,000 tested, 2.3% active; active = well fitted curve in the direction sought with a large enough effect; inconclusive = small, poorly fitted or top-dose-only effect, or another doubt; inactive = no such curve, though single readings can be large; an effect the other way counts as inactive or inconclusive;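 also: plate controls were enzyme without inhibitor for no effect and buffer without enzyme for full effect; nearly all actives have a fitted effect of over 40% in size; top concentration of the series not given in the record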
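Purified cruzain at 1.5 nM, pre-incubated 15 min with compound at room temperature in 100 mM sodium acetate pH 5.5, 5 mM DTT, 0.00005% Triton X-100. Reaction started with 2 uM Z-FR-AMC; AMC fluorescence increase over 60 s gives rate.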
SARS PLpro yeast: qHTS of Yeast-based Assay for SARS-CoV PLP; S. cerevisiae expressing SARS-CoV PLpro, growth rescue; control for the full effect not named in the record; Potency, µM (highest dose often 32.9 µM), inactives show at the top dose activity, positive = growth rescue; 330,000 tested, 0.19% active; AID 485353, 2010; also: 0% is about no effect; nearly all actives have a fitted effect of over 55% in size; growth read by luminescence after 48 h
RE007 growth inh: qHTS Assay for Inhibitors of the HIV-1 protein Vpr. S. pombe RE007 Vpr strain, BacTiter-Glo ATP luminescence, 24 h; control for the full effect not named in the record. Potency, µM (doses to about 92.2 µM), for the others: at the highest dose activity change, negative = less growth. 360,000 tested, 0.21% active. AID 651644, 2012; active = well fitted falling curve with a large enough effect; inconclusive = small, poorly fitted or top-dose-only effect; inactive = no such curve, though single readings can be large or run the other way;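 also: % is scaled to controls: 0 for no effect and ±100 for the full control effect; nearly all actives have a fitted effect of over 50% in size; the assay follows cell death caused by Vpr and the record does not say whether a fall means rescue or toxicity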
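Fission yeast RE007 carrying one integrated HIV-1 vpr copy, seeded at OD 0.01 in PMG+AL medium with 23 nL pinned compound. Grown 24 h at 30 degrees; viability read by BacTiter-Glo luminescence after 5 min.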
2A StopGo: High Throughput Screening for Foot and Mouth Disease Virus Antivirals. human cells with a luciferase reporter of 2A StopGo recoding; control for the full effect not named in the record. 410,000 tested, 1.2% active. Potency, µM (doses to about 57.9 µM), for the others: at the top dose signal change, negative = less light. AID 1159524, 2015; active = well fitted falling curve with a large enough effect; inconclusive = small, poorly fitted or top-dose-only effect; inactive = no such curve, though single readings can be large or run the other way; tested in HEK293T cells; also: % is scaled to controls: 0 for no effect and ±100 for the full control effect; nearly all actives have a fitted effect of over 45% in size; luciferase light after 4 h
* hit, by the source's call; ? = inconclusive; nt = no result given; & = joins results of further samples; [ ] = dose if it differs, or a comment. Unless noted, calls follow the shape of the dose curve; as a rule, active means well fitted rising curve with a large enough effect; inconclusive means small, poorly fitted or top-dose-only effect; inactive means no such curve, though single readings can be large or run the other way. Potency is read from the fitted curve at half-maximal effect. Outcome played no part in choosing rows (roughly 4.7% active in at least one column).

SMILES | NS1 inh | Lassa entry inh | Cruzain Triton | MARV entry inh | Cruzain noTriton | SARS PLpro yeast | RE007 growth inh | 2A StopGo
CCOc1ccc(NC(=O)CN(C)C(=O)c2ccccc2-n2cnnn2)cc1OCC | nt | 27% | nt | 3%[46.1 µM] | nt | -1% | 2% | -18%
CCOP(=O)(OCC)c1cccc(O)c1 | nt | 23% | nt | 16%[46.1 µM] | nt | -7% | 10% | -13%
CN(c1ccccc1)S(=O)(=O)c1ccc(NC(=O)c2ccccc2C(=O)O)cc1 | nt | 22%[46.1 µM] | nt | ? | nt | nt | 2% | -4%
COc1ccc(N(CC(=O)NCc2ccco2)S(C)(=O)=O)cc1OC | 2% | 2% | 0.5% | -16% | -2% | -7% | -11% | 0%
CCOc1ccc(N(CC(=O)N2CCc3ccccc32)S(=O)(=O)c2c(C)noc2C)cc1 | -18% | nt | -2.6% | 1% | -13% | -11% | -10% | -22%
O=C(NCC(F)(F)F)Nc1cccnc1 | 3% | 3% | 1.7% | ? | -11% | -14% | 12% | 0%
Cc1ccc(NC(=O)c2ccc3snnc3c2)cc1Cl | nt | 4%[46.1 µM] | -3.5% | ? | -13% | nt | nt | 20%
Cc1ccc2oc3c(c(=O)c2c1)C1(C(=O)N(C)c2ccccc21)N(CCCO)C3=O (stereo unspecified) | nt | 14%[46.1 µM] | -2.5% | ? | -8% | nt | nt | -2%
O=C1c2ccccc2C(=O)N1CCc1csc(-c2ccc(F)cc2)n1 | -23% | -10% | -5.9% | 7% | 1% | -30% | -13% | ?
Cn1nccc1C(=O)Nc1ccn(C23CC4CC(CC(C4)C2)C3)n1 | -35% | -30% | -5.0% | ? | -7% | -33% | -4% | ?
CCCCn1c(SCC(=O)NC2CC(C)(C)NC(C)(C)C2)nc2cc(S(N)(=O)=O)ccc21 | 1% | nt | nt | nt | nt | -1% | -7% | -15%
Cc1ccc2c(c1)C(=O)OC(C(=O)Nc1ncc(Cc3ccccc3Cl)s1)C2 (stereo unspecified) | nt | 0%[46.1 µM] | 0.5% | 5%[46.1 µM] | 11% | nt | nt | 2%
c1ccc(C(c2nnnn2Cc2ccco2)N2CCN(C3CCCC3)CC2)cc1 (stereo unspecified) | 1% | 0% | -1.3% | -17% | -10% | 3% | -4% | 3%
Cc1cc2nn(-c3ccc(F)cc3)nc2cc1NC(=O)c1cccc2c(Cl)cccc12 | nt | 30%[46.1 µM] | 1.2% | 0%[46.1 µM] | -1% | nt | nt | 11%
CC(=O)C1C2c3ccccc3OC1(C)N=c1s/c(=C/c3cn(C)nc3C)c(=O)n12 (stereo unspecified) | -12% | 1% | -7.2% | -2% | ? | 5% | 13% | -18%
O=C1OC2(c3ccccc3)C3CCCC2C13 | -3% | -12% | 4.4% | 13% | -13% | -2% | -3% | -11%
COc1cc(-c2nc3ccccc3s2)ccc1O | -86% | ? | -18% | 1% | 3% | -24% | -15% | nt
COc1cc(C(=O)C(=O)c2cc(OC)c(O)c(OC)c2)cc(OC)c1O | -4% | ? | nt | 0%[46.1 µM] | nt | 1% | 14% | -11%
COc1ccc2nc(SCC(=O)N(C)C3CCCCC3)c(C#N)cc2c1 | 2% | ? | -8.0% | -22% | -22% | -4% | 7% | -4%
CCc1cc(=O)oc2c(C)c(O)c(CN3CCCCC3)cc12 | 12% | -16% | -6.6% | -1% | -2% | -2% | 3% | -12%
Cc1cc(C(F)F)nn1CC(=O)NCc1ccco1 | 7% | 2% | -4.3% | ? | 1% | 1% | 13% | -14%
CCCC(=O)Nc1cc(OCC)c(NC(=O)NC2CCCCC2)cc1OCC | -1% | 1% | -0.2% | -1% | ? | -5% | 2% | nt
CCCS(=O)(=O)c1ncc(Cl)c(C(=O)Nc2ccc(S(=O)(=O)Nc3ncccn3)cc2)n1 | -3% | nt | nt | nt | nt | 6% | 4% | -10%
O=C(CC1NC(=S)NC1=O)c1ccc(Cl)cc1 (stereo unspecified) | -1% | 0% | nt | 2% | nt | 0% | 2% | 0%
CC(=O)Nc1cc(F)c2c(c1F)Cc1cc(F)ccc1-2 | nt | ? | nt | ? | nt | nt | -11% | 43%[activator]
Cc1cc(NC(=O)C(C)SCC(=O)N(C)CC(=O)Nc2ccccc2Br)no1 (stereo unspecified) | nt | 3% | nt | -10% | nt | 4% | -3% | -11%
C=CCC(COCc1ccccc1)NS(=O)(=O)c1ccccc1Br (stereo unspecified) | -6% | nt | nt | nt | nt | -2% | 0% | -2%
CC(=O)c1ccc(N2CCN(C(=O)c3cc4c(s3)-c3ccccc3OC4)CC2)cc1 | nt | nt | -1.9% | 13%[46.1 µM] | 5% | nt | nt | ?
O=c1c2ccccc2nnn1CSc1ccc2ccccc2n1 | 9% | -1% | -1.9% | 13% | 19% | -2% | -19% | 2%
CC(=O)N1c2ccc(S(=O)(=O)N3CCCC3C(=O)Nc3cccc(F)c3)cc2CC1C (stereo unspecified) | 2% | nt | nt | nt | nt | 3% | -20% | ?
Cc1ccc(-n2c(=O)c3cc4c(=O)n(-c5ccc(C)c(C)c5)c(=O)c4c(C(=O)c4ccc(C(=O)O)cc4)c3c2=O)cc1C | 10% | nt | nt | nt | nt | 0% | -6% | -18%
CCN(CC(=O)Nc1ccc(OC)cc1)C(=O)c1cc(-c2cccs2)nn1-c1ccccc1 | nt | -7% | nt | ? | nt | -1% | -1% | -21%
COc1ccc(CNC(=O)C(OC(=O)c2ccco2)c2ccc(F)cc2)cc1 (stereo unspecified) | -3% | -1% | nt | 0%[46.1 µM] | nt | 0% | -9% | 17%
CCN(CC)c1ccc(NC(=O)c2cc(CN3CCCC3)on2)c(C)c1 | nt | -4%[46.1 µM] | -0.7% | nt | 0% | nt | nt | -31%
CCOC(=O)C(C#N)C(c1cccnc1)c1c(C)[nH][nH]c1=O (stereo unspecified) | 6% | 3% | 7.3% | 5% | 3% | 12% | 3% | -4%
CCOC(=O)N1CCN(c2c(-c3ccc(C)c(C)c3)c(=O)c2=O)CC1 | -9% | -1% | -7.6% | 3% | -16% | 7% | -9% | -17%
CC(C)C(NC(=O)c1ccc([N+](=O)[O-])cc1Cl)C(=O)N1CCCC1 (stereo unspecified) | 1% | 0%[46.1 µM] | nt | 10%[46.1 µM] | nt | 1% | 8% | 3%
CC1=C(C(=O)Nc2cccnc2)C(c2ccc(C)cc2)n2nc(SCc3ccccc3F)nc2N1 (stereo unspecified) | nt | ? | -4.5% | 6%[46.1 µM] | 13% | nt | nt | -7%
Cc1cccn2c(=O)c(/C=N/O)c(Nc3ccccc3F)nc12 | -1% | 17%[46.1 µM] | nt | ? | nt | -2% | 0% | 1%
Cc1cc(C(=O)CSc2nnnn2C)c(C)n1-c1ccc2c(c1)OCCO2 | 4% | 27% | -2.6% | -22% | -22% | -14% | 2% | 14%
COc1c(/C=N/NS(=O)(=O)c2ccc(C)cc2)c(CCN(C)C(C)=O)cc2c1OCO2 | -9% | nt | nt | nt | nt | 7% | 11% | 4%
CCCC(=O)NC(=S)Nc1cccc(C(C)=O)c1 | -5% | 10% | 0.4% | 16%[46.1 µM] | -2% | 8% | 20% | 21%
Cn1c(C(C)(O)C(O)c2ccccc2)nc2ccccc21 (stereo unspecified) | 1% | 9% | -2.0% | 4% | -11% | 13% | nt | nt
O=C(Oc1cccc(C(=S)N2CCOCC2)c1)c1cccc(Cl)c1 | -6% | 9% | nt | 5% | nt | ? | 12% | 0%
CCOC(=O)N1CCN(C(=O)c2ccc(CN(c3ccccc3)S(C)(=O)=O)cc2)CC1 | 1% | ? | 2.8% | 2% | 8% | -4% | 16% | 0%
CC1(C)CCC[C@]2(C)C(CS(=O)c3ccccc3)=C(C=O)CC[C@@H]12 (stereo partly specified) | nt | ? | nt | ? | nt | nt | -2% | -7%
CN(C)P(=O)(CCl)Nc1ccccc1 (stereo unspecified) | 4% | 0% | -2.3% | 0% | -2% | 12% | 9% | -28%
CN(C)c1ccc(CNC(=O)Cc2ccc(NC(=O)N3CCCCc4ccccc43)cc2)cc1 | nt | ? | -1.1% | nt | 2% | nt | nt | -17%
CC1(C)CC(=O)C(CC2=C(O)CC(C)(C)CC2=O)=C(O)C1 | 1% | 1% | 3.0% | 19% | -4% | 5% | -17% | ?
CSc1nc2cc(S(=O)(=O)N3CCCCC3)ccc2s1 | -4%&-3% | 30%[46.1 µM] | -6.6% | -14%[46.1 µM] | -7% | -1% | -17% | -6%
CCCC(c1nnnn1CCc1ccccc1)N1CCN(C(=O)c2ccco2)CC1 (stereo unspecified) | -6% | -18% | 3.6% | 1% | -7% | 3% | -9% | 5%
CC(C)(C)c1ccc(O)c(N=Cc2cc(Br)ccc2O)c1 | 3% | nt | nt | nt | nt | -1% | -5% | ?
O=C(c1ccc(F)cc1F)N1CCC(c2nc(-c3ccc(S(=O)(=O)N4CCCC4)cc3)no2)CC1 | nt | 16%[46.1 µM] | 0.6% | ? | -19% | nt | nt | -17%
O=C(NCCN=C1NS(=O)(=O)c2ccccc21)c1ccc2nccnc2c1 | 2% | -15% | -1.8% | -4% | -3% | 4% | 10% | 3%
Cn1c(NC(=O)/C=C/c2ccc(Cl)c(Cl)c2)cc(=O)n(C)c1=O | 7% | 0% | -4.9% | ? | -22% | -2% | 3% | 8%
CCc1n[nH]c(=S)n1/N=C/c1ccc(N(C)c2ccccc2)cc1 | nt | ? | nt | ? | nt | 9% | -2% | -11%
